Assay outcomes as filed in PubChem.
Anaer choline gr: blocks anaerobic gram-negative growth on choline; Gram-negative bacterium anaerobic choline minimal medium, absorbance growth; active compounds read low; many inactives read as strong as hits in the columns shown; calls only; 0.2% of 55,000 active; AID 1963822;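 active = growth z-score on choline under -2 at 7 or 20 h with little or no fall on glycerol, limits in tiers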;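 also: stock transfer was 300 nL into about 50 µL; the organism is E. coli; final concentration not given here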
Anaer choline gr early: second read-out of Anaer choline gr, no call of its own (marks repeat the call); z-score; measured here: choline growth z-score, timepoint 1;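 score of optical density at 7 h as mean of two plates; lower means less growth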
Starred values were filed as active, the others as inactive; i = inactive; + = active, no number; & = joins results of further samples.

smiles | Anaer choline gr | Anaer choline gr early
COc1ccc(CN2CCCC2c2c(C)noc2C)cc1O (stereo unspecified) | i | -0.67
O=c1c(Nc2cccc(Cl)c2)c(-c2ccccc2)c1=O | i | 0.84
COC(=O)C1=C(C)NC(C)=C(C(=O)OC)C1c1cccc(NC(=O)NCCCN2CCC(c3cccc(OC)c3)CC2)c1 | i | -0.17
O=S(=O)(c1ccc2c(c1)OCCO2)N1CCCC1c1cccc(F)c1 (stereo unspecified) | i | 0.22
Cc1cc(C)n(-c2cc(C(C)(C)C)nc3c(-c4ccc(F)cc4)c(C)nn23)n1 | i | 1.12
Cc1ccc(C(=O)N2CC(=O)Nc3ccc(C)cc3C2c2ccccc2)cc1 (stereo unspecified) | i | 0.74
N#Cc1nc(-c2ccc(S(=O)(=O)N3CCOCC3)cc2)oc1N1CCOCC1 | i | 0.87
COc1ccc(NC(=O)Nc2ccccc2Sc2ccc3nncn3n2)cc1OC | i | 0.13
O=C(Nc1ccc2c(c1)OCO2)c1nnc(C(=O)N2CCCC(C(=O)NC3CCCCC3)C2)s1 (stereo unspecified) | i | 0.49
CCS(=O)(=O)N1CCN(c2cc(-c3ccc(F)cc3)ncn2)CC1 | i | -1.04
CN1CCC(NC(=O)C2CCc3sc(C(=O)N(C)C)cc3C2)CC1 (stereo unspecified) | i | 0.36
CCSc1nn(CC(=O)Nc2c(C)cc(C)cc2C)c(N)c1S(=O)(=O)c1ccc(OC)cc1 | i | 0.08
Cc1cc(NC(=O)CSc2nc(=O)n(Cc3ccncc3)c3c2CCC3)no1 | i | 0.01
Cc1cc(N2CCN(c3ccccc3)CC2)nc2ccccc12 | i | 0.17
CCC1CCCCN1C(=O)C1CCCN(S(=O)(=O)c2c(C)noc2/C=C/c2ccc(C)cc2)C1 (stereo unspecified) | i | -0.45
COc1ccc(Cn2c(CCC(=O)Nc3cccc(C)c3C)nc3cccnc32)cc1 | i | 0.56
CN(CCc1noc(-c2cc3cc(Cl)ccc3[nH]2)n1)C(=O)c1cccn1C | i | 1.21
CCCN(CCC)C(=O)Cn1c(CN(C)C(C)=O)nc2ccccc21 | i | 0.46
Cn1c(-c2nnc(SCC(=O)NCCc3nc4ccccc4[nH]3)o2)cc2ccccc21 | i | 0.13
c1ccc(-c2cc3ncc4c(n3n2)-c2ccccc2OC4)cc1 | i | 1.23
CC(=O)NCCc1nc2cc(NC(=O)c3ccccc3C)ccc2n1C | i | -0.6
Nc1cc(-c2ccccc2)nn1S(=O)(=O)c1ccc(F)cc1 | i | 0.09
Cc1cccc(OCc2nc(C)c(C(=O)Nc3nc(-c4ccc5c(c4)OCCCO5)cs3)s2)c1 | i | 0.81
CNCC[C@H](Oc1ccc(C(F)(F)F)cc1)c1ccccc1 | i | -1.63

Part of the list above, with values ahead of the structure.
Anaer choline gr	Anaer choline gr early	smiles
i	0.84	O=c1c(Nc2cccc(Cl)c2)c(-c2ccccc2)c1=O
i	-0.17	COC(=O)C1=C(C)NC(C)=C(C(=O)OC)C1c1cccc(NC(=O)NCCCN2CCC(c3cccc(OC)c3)CC2)c1
i	0.22	O=S(=O)(c1ccc2c(c1)OCCO2)N1CCCC1c1cccc(F)c1 (stereo unspecified)
i	1.12	Cc1cc(C)n(-c2cc(C(C)(C)C)nc3c(-c4ccc(F)cc4)c(C)nn23)n1
i	0.74	Cc1ccc(C(=O)N2CC(=O)Nc3ccc(C)cc3C2c2ccccc2)cc1 (stereo unspecified)
i	0.87	N#Cc1nc(-c2ccc(S(=O)(=O)N3CCOCC3)cc2)oc1N1CCOCC1
i	0.13	COc1ccc(NC(=O)Nc2ccccc2Sc2ccc3nncn3n2)cc1OC

Of the compounds above, these have a Cl atom:
smiles | Anaer choline gr | Anaer choline gr early
O=c1c(Nc2cccc(Cl)c2)c(-c2ccccc2)c1=O | i | 0.84
CN(CCc1noc(-c2cc3cc(Cl)ccc3[nH]2)n1)C(=O)c1cccn1C | i | 1.21

(more compounds)
smiles | Anaer choline gr | Anaer choline gr early
O=C(CN1C(=O)c2ccccc2C1=O)Nc1ccc2c(c1)CCC(=O)N2 | i | 1.24
Cc1ccc(NC(=O)Nc2nccn(-c3ccc(Cl)cc3)c2=O)cc1C | i | 1.02
O=C(Cn1cccc1-c1nc(-c2ccccc2)cs1)NC1CCCC1 | i | 0.09
Cc1ccc(C(C)NC(=O)CCc2nc(-c3cc4ccc(C)cc4[nH]c3=O)no2)cc1 (stereo unspecified) | i | 0.44
CC1CCCN(c2ccc(-c3noc(CN4CCN(C(C)C)CC4)n3)cn2)C1 (stereo unspecified) | i | 0.06
C=CCn1cnc2c(oc3ccccc32)c1=O | i | -1.83
O=C(CC1CCCC1)N1CCC(n2nc(-c3ccccc3)oc2=O)CC1 | i | -0.81
O=C(NC1CCCCC1)c1cccc(Nc2ncc(-c3cccc(F)c3)cn2)c1 | i | 0.05
CCOCCCn1c(SCC(=O)Nc2oncc2-c2ccc(F)cc2)nc2ccccc2c1=O | i | -0.47
NC(=O)C1CCN(c2nc3ccccc3nc2S(=O)(=O)Cc2ccc(Cl)cc2)CC1 | i | 1.02
O=C1Nc2cc(C(=O)N3CCc4ccccc4C3)ccc2NC1CS(=O)(=O)Cc1cccc(Cl)c1 (stereo unspecified) | i | -0.14
CC(C)(C)Nc1c(-c2cccc(F)c2)nc2sc3ccccc3n12 | i | 0.22
CCCc1cc(C2CCCN2C(=O)c2cc(C(C)C)no2)no1 (stereo unspecified) | i | -0.72
C=Cc1ccc(CN(c2nc3nc(C)cc(C)n3n2)S(=O)(=O)c2ccc(C)cc2)cc1 | i | 1.25
Cn1cc(C(=O)Nc2ccc(Br)cc2)c2[nH]c(=O)n(-c3ccc(F)cc3)c(=O)c21 | i | 0.81
O=C(c1cc(-c2cccnc2)on1)N1CCOCC1 | i | -1.67
Cn1c(CN(c2ccc(F)cc2)S(C)(=O)=O)nnc1SCC(=O)N1CCCC1 | i | 0.34
COc1ccc(-c2nc(Cn3nnc(-c4nc(-c5ccc6c(c5)OCO6)no4)c3C)c(C)o2)cc1 | i | 0.18
CCCN1C=C(OC(=O)c2ccccc2)c2ccccc2S1(=O)=O | i | 1.35
Cn1c(=O)c2c(-c3ccccc3)n3c(c2n(C)c1=O)C(c1ccc(O)c(O)c1)Nc1ccccc1-3 (stereo unspecified) | i | -0.9
COc1ccc(-c2cc3c(=O)n(CC(=O)Nc4cccc(OC)c4)ncn3n2)cc1 | i | 0.32
CCOC(=O)c1cc(S(=O)(=O)N2CCCC2C(=O)N2CCCC2)cn1C (stereo unspecified) | i | -0.67
CC(c1nnc(SCC(=O)N2CCc3ccccc32)n1C)N1C(=O)COc2ccccc21 (stereo unspecified) | i | -0.45
C=Cc1ccc(CSc2nc3c(c(=O)[nH]2)CN(CCC)CC3)cc1 | i | -1.13
O=C(NCc1noc(-c2ccccc2)n1)c1cccnc1Cl | i | -1.23
Cc1cc(-c2nn3c(COc4ccccc4)nnc3s2)no1 | i | 0.42
Cc1ccc(C(=O)NCc2nc(-c3ccc4c(c3)nnn4C3CCCC3)no2)cc1 | i | 0.29
O=C(CCc1nc(CSc2nnc(-c3cccnc3)o2)no1)Nc1ccc(Br)cc1 | i | 0.32
O=C(NC1CCS(=O)(=O)C1)c1ccc(N2C(=O)CCS2(=O)=O)cc1Cl (stereo unspecified) | i | 0.15
Cc1cc(C)c(NC(=O)CSc2cc(C)c3cc(S(=O)(=O)N4CCCC4)ccc3n2)c(C)c1 | i | -0.14
Cc1c(NS(=O)(=O)c2ccc(F)cc2)c(-n2cnnc2)nn1C | i | -0.99
CN(CCc1noc(C(=O)NCc2ccc(Cl)cc2)n1)C(=O)NC1CCCC1 | i | -0.31
O=C(Cn1cc(S(=O)(=O)Cc2ccccc2)c2ccccc21)N1CCc2ccccc2C1 | i | 0.48
Cc1c(Cl)cccc1NC(=O)CCS(=O)(=O)c1ccc2c(c1)CC(=O)N2C | i | 0.02
CN(C)c1ccc(C(CNC(=O)C(C)(C)C)N(C)C)cc1 (stereo unspecified) | i | 0.29
Cn1c(=O)c(-c2noc(C(=O)N3CCN(c4ccccc4)CC3)n2)nn(-c2ccccc2)c1=O | i | 1.47
O=C(NC1CCN(c2ncnc3c2CCC3)C1)c1ccco1 (stereo unspecified) | i | -0.01
CN(C)c1ccc(NC(=O)c2ccccc2Cl)c(C(=O)O)c1 | + | -1.97*
O=C(CCCn1nc(-c2ccccc2)c2ccccc21)NCc1ccc(F)cc1 | i | 5.84
Cn1c(C(=O)Nc2ccccc2F)cc2c(=O)oc3ccccc3c21 | i | 2.1
O=C(NC1CC1)C1CCN(c2cncnc2N2CCOCC2)CC1 | i | -0.9
COc1ccc(-c2nn3c(=O)cc(CNC(=O)Nc4ccc5c(c4)OCO5)nc3s2)cc1 | i | 0.36
CCOc1ccc(-c2nc(CNC(=O)Nc3cccc(Cl)c3)c(C)o2)cc1 | i | 0.09
Cc1ccc(-c2cc3c(SCC(=O)NC(C)C)nccn3n2)cc1 | i | 0.36
O=c1c(Nc2cccc(F)c2)c(-c2ccccc2)c1=O | i | -0.2
Cc1cccc(N(Cc2nc3nc(C)cc(=O)n3[nH]2)C(=O)C(C)(C)C)c1 | i | -1.26
COc1ccc2c(c1)c(C(=O)CN1CCOCC1)c(C)n2C | i | 0.02
Cc1ccc(CNCc2cccn2-c2c(C(=O)O)cnn2-c2ccccc2)cc1 | i | 1.23

Later entries
Values in the order: Anaer choline gr | Anaer choline gr early
O=S(=O)(c1ccc2c(c1)CCCC2)N1CCC2(CC1)Nc1ccccc1-n1cccc12
    i | -0.82
COc1ccc(OC)c(C2C3=C(CC(c4ccccc4)CC3=O)Nc3onc(C)c32)c1 (stereo unspecified)
    i | -1.52
CC1Cc2ccccc2N1C(=O)c1cc(-c2cccnc2)on1 (stereo unspecified)
    i | -1.04
Cc1nn(CCCC(=O)NCCN2CCCCC2C)c(=O)c2c(-n3cccc3)n(-c3ccccc3)nc12 (stereo unspecified)
    i | -0.34
Cn1nccc1-c1cccc(-c2noc(-c3ccoc3)n2)c1
    i | -0.32
O=S(=O)(c1ccc(-c2cnc(C3CCC3)o2)s1)N1CCN(c2ccccn2)CC1
    i | 1.38
O=C(C1CCC1)N1CCc2cc(-c3csc(C4CC4)n3)ccc21
    i | 0.36
CC(C(=O)N1CCCC1)N1Cc2ccccc2C1=O (stereo unspecified)
    i | -0.95
O=C(CSc1nnc2ccc(-c3ccccn3)nn12)N1CCOCC1
    i | 1.19
CCCNC(=O)c1ccc2c(=O)n(CC3CCCO3)c(SCc3cccc(Cl)c3)nc2c1 (stereo unspecified)
    i | -0.2
Cc1nc(-c2ccc(S(=O)(=O)Nc3cccnc3)cc2)co1
    i | -0.58
CCCc1nnc2n1NC(c1ccc(CC)cc1)C(C(=O)Nc1ccc(CC)cc1)S2 (stereo unspecified)
    i | 1.16
Cc1nc2ncccc2c(=O)n1-c1cccc(NC(=O)c2ccccc2Br)c1
    i | -1.78
COc1ccc(Br)cc1C(=O)Nc1c(-n2cnnc2)nn(C)c1C
    i | -0.99
O=C(NCc1ccccc1Cl)C1CCN(c2nc3ccccc3n(Cc3ccccc3)c2=O)CC1
    i | 0.78
Brc1ccc(CSc2nnc(C3CCNCC3)o2)cc1
    i | -1.4
Cc1ccc(NC(=O)N2CCN(c3ccc(=O)n(-c4ccc(F)cc4)n3)CC2)cc1
    i | -0.31
Cc1csc(NC(=O)C2CCCN(c3ncnc4onc(C)c34)C2)n1 (stereo unspecified)
    i | 0.88
CCCn1nnc2cc(S(=O)(=O)N3CCCC(C(=O)N4CCCC4)C3)ccc21 (stereo unspecified)
    i | -0.41
CCn1cc(-c2nc(-c3ccccn3)no2)c(=O)c2cc(F)c(N3CCOCC3)cc21
    i | 0.01
COc1cc(CN2CCCC2c2cc(C)no2)cc(OC)c1O (stereo unspecified)
    i | 0.57
COc1ccc(NC(=O)C2Nc3cc(F)ccc3S(=O)(=O)N2)c(OC)c1 (stereo unspecified)
    i | 1.56
CC(C)n1c(=O)c2ccc(C(=O)NC3CCCC3)cc2n2c(=O)[nH]nc12
    i | -0.13
CN(C)CCSc1nc(O)c(-c2ccccc2)c(=O)[nH]1
    i | -0.19
CCOC(=O)C1CCN(C(=O)CN2C(=O)c3ccccc3Sc3ncccc32)CC1
    i | -0.14
CCN(CC)Cc1cc(OCc2nc(-c3cccc(C)c3)oc2C)nc2c1c(C)nn2C
    i | 1.47
COc1ccc(OCc2nn3c(-c4cc5ccccc5[nH]4)nnc3s2)cc1
    i | 1.24
O=C(COCc1cc(-c2ccc3c(c2)OCO3)on1)NCCC1=CCCCC1
    i | -0.01
Cc1cccc(N2CCN(c3ncc(C(=O)O)cc3NS(=O)(=O)c3cccc(C)c3)CC2C)c1 (stereo unspecified)
    i | -0.13
C=CCNC(=O)C1CCCN1C(=O)c1ccc(NS(=O)(=O)c2ccc(Br)cc2)cc1 (stereo unspecified)
    i | -0.25

Some of the entries above in a different format:
COc1cc(CN2CCCC2c2cc(C)no2)cc(OC)c1O (stereo unspecified)
  Anaer choline gr = i
  Anaer choline gr early = 0.57

CC(C)n1c(=O)c2ccc(C(=O)NC3CCCC3)cc2n2c(=O)[nH]nc12
  Anaer choline gr = i
  Anaer choline gr early = -0.13

Additional records
Values in the order: Anaer choline gr | Anaer choline gr early
Cc1nc2ccccc2n(Cc2ccc(C(=O)N3CCN(c4ccccn4)CC3)cc2)c1=O
    i | -0.2
CN(C(=O)CSc1nc2ncccc2o1)c1ccccc1
    i | -1.07
CC(C)(C)n1nc(-c2ccc(Cl)cc2)c2c(N)ncnc21
    i | -1.02&0.6&0.47
Cc1ccc(C(=O)N(c2ccc3oc(=O)sc3c2)S(=O)(=O)c2ccc(F)cc2)cc1
    i | 0.66
COc1ccc(OC)c(NC(=O)NCCc2nc3cccnc3n2C2CCCCC2)c1
    i | 0.42
CC1CCC(NC(=O)C2CCCN(C(=O)c3cc(-c4ccncc4)n[nH]3)C2)CC1 (stereo unspecified)
    i | -0.4
CCn1c(CN(c2ccc(F)cc2)S(C)(=O)=O)nnc1SCC(=O)c1cn(C)c2ccccc12
    i | 1.18

A portion of the library; rates above refer to the full screens.
